# GLA inh pH 4.5: qHTS Assay for Inhibitors of Human alpha-Galactosidase at pH 4.5; purified enzyme, 4-MU-alpha-Gal fluorescence, pH 4.5; activity change, negative = inhibition, % at 105 µM; 230,000 tested, under 10 active; AID 1467, 2008; inconclusive = small, poorly fitted or top-dose-only inhibition, or a rising curve; inactive = flat fitted curve, though single readings scatter; no compound was filed as active;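 also: 0% = full activity with enzyme and -100% = basal without enzyme; dose as in the result columns while the protocol names 77 µM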
# Target sequence (P06280 whole entry, looked up): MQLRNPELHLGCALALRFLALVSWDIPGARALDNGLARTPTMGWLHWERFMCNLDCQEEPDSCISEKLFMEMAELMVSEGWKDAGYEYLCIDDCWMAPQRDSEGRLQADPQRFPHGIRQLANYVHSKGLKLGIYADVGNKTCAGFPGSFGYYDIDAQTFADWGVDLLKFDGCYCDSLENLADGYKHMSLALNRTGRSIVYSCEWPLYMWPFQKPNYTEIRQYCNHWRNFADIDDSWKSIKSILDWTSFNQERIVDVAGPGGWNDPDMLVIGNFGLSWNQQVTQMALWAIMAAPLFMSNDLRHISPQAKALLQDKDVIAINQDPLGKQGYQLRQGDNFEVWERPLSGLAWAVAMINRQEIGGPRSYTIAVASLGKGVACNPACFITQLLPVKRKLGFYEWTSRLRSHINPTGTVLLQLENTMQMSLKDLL
# Rango dissoc inh: qHTS Assay for Inhibitors of RanGTP induced Rango (Ran-regulated importin-beta cargo) - Importin beta complex dissociation | Snurportin-1 (Homo sapiens) + GTP-binding nuclear protein Ran (Homo sapiens) + Importin … | Biochemical FRET Rango-importin beta, RanGTP-induced dissociation | Potency, µM (series often up to 46.1 µM), inactives show at the highest dose activity change, negative = inhibition | hit rate 0.071% among 340,000 | AID 540253, 2011; active means falling FRET ratio curve, often poorly fitted, with flat reads before Ran was added; inconclusive means other falling curves, or compound fluorescence or quenching; inactive means flat or rising ratio curve;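 also: potency is read from the fitted curve at half-maximal effect; % of control where 0% means no effect; nearly all actives have a fitted effect of over 45% in size; -100% = wells without RanGTP and RCC1; the record marks most hits as doubtful in a second field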
#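 Compounds preincubate 5 min with complex of recombinant Rango and importin beta in PBS with 1 mM DTT. Ran (0.6 uM) loaded with 2 mM GTP plus 0.2 uM RCC1 starts dissociation; FRET is recorded 45 min later.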
# Rango complex inh: qHTS Assay for Inhibitors of Rango (Ran-regulated importin-beta cargo) - Importin beta complex formation. Rango CFP/YFP FRET sensor + importin beta, 45 min. hit rate 0.031% among 340,000. Potency, µM (doses to about 92.2 µM), for the others: at the top dose inhibition of complex formation. Importin subunit beta-1 (Homo sapiens), Q14974; active = rising FRET ratio curve, often small or poorly fitted; inconclusive = mostly compound fluorescence or quenching in the first reads; inactive = flat curves in all reads;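 also: potency is read from the fitted curve at half-maximal effect; 0% = DMSO wells and 100% = buffer wells lacking importin beta; nearly all actives have a fitted effect of over 15% in size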
#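 FRET biosensor (snurportin 1 IBB flanked by EYFP and cerulean), 50 nM, with compound 5 min, then 0.125 microM importin beta in PBS, 1 mM DTT, 0.02% Tween-20, 0.1% BSA. CFP/YFP ratio read after 45 min at room temperature; pre-read flags interference.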
# miR-21 reporter: qHTS Assay for Modulators of miRNAs and/orActivators of miR-21. HeLa miR-21 FLuc reporter, luciferase, 48 h. Potency, µM (top dose mostly 38.3 µM), inactives show at the top dose reporter change, positive = more light. 340,000 tested, under 10 active. AID 2288, 2010; active = well fitted rising curve with a large enough effect; inconclusive = small, poorly fitted or top-dose-only effect; inactive = no such curve, though single readings can be large or run the other way;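 also: % of control where 0% means no effect; miR-21 action dims this reporter so a rising signal means less miR-21 action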
#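 Using DMEM plus 10% FBS, HeLa miR-21-FLuc cells are incubated with test compounds (final up to about 40uM) for 48 hours; firefly luciferase signal is then imaged following reagent-mediated lysis.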
# * hit, by the source's call; ? = inconclusive; · = not tested or not shown.
GLA inh pH 4.5 | molecule | Rango dissoc inh | Rango complex inh | miR-21 reporter
0.9 | COc1ccccc1-c1noc(CCCC(=O)N2CCOCC2)n1 | -1.2% | -1.0% | 1.1%
-27.3 | Cc1ccc2nc(N3CCN(Cc4nnnn4C4CCCC4)CC3)c(C#N)cc2c1 | -28.8% | ? | -0.2%
-12.1 | CCCc1cnc(N2CCN(S(=O)(=O)c3cccs3)CC2)nc1 | 1.7% | 0.1% | -11.3%
-8.0 | CCOC(=O)c1cnc2nc(N3CCOCC3)nn2c1N | 6.1% | 0.6% | 1.8%
· | CSCCC(NS(=O)(=O)c1cccc(C(F)(F)F)c1)C(=O)N1CCN(C(=O)c2ccco2)CC1 (stereo not given) | 0.9% | -3.4% | ·
5.8 | CC1CC2(CCCCC2)Nc2c1ccc1ccccc21 (stereo not given) | ? | ? | 1.5%
0.7 | Nc1nonc1C(=Nc1ccc(Br)cc1)NO | 24.0% | 3.1% | -14.1%
· | O=C(NNC(=S)Nc1ccc(Cl)cc1)c1ccccc1 | -15.3% | 6.5% | -48.6%
· | COc1ccc2cc(N3CCCC3=O)ccc2c1 | 12.7% | -1.3% | ·
16.3 | CCOC(=O)C(Cc1ccccc1)NC(=O)CCc1c(C)nc2ncnn2c1C (stereo not given) | 0.5% | ? | -3.4%
· | COc1cc2c(c(OC)c1OC)-c1ccc(NC(=O)c3ccccc3)c(=O)cc1[C@@H](NC(C)=O)CC2 | 2.6% | 1.2% | 26.8%
-10.9 | Cc1cc(C)c2[nH]c(=O)c(CN(Cc3ccco3)C(=S)NCC3CCCO3)cc2c1 (stereo not given) | -24.9% | 1.6% | -8.4%
-23.4 | S=C(c1ccc(-c2ccccc2Cl)o1)N1CCCCC1 | 0.9% | 3.8% | -69.2%
· | CCc1cc(=O)oc2c3c(cc(OCC(=O)NCc4ccncc4)c12)OC(C)(C)CC3 | 2.8% | -4.6% | -9.0%
-9.5 | COC(=O)c1ccccc1NC(=O)N1CCCC1 | 3.6% | 0.7% | 0.4%
-6.5 | COCCCN1C(=O)C(O)=C(C(=O)c2ccco2)C1c1ccccc1 (stereo not given) | -0.4% | 5.2% | -1.2%
· | Cc1ccc(C)c(NC(=O)CCc2nnc3ccc(N4CCCCC4)nn23)c1 | 16.8% | -2.4% | 0.5%
0.0 | Cc1nn(Cc2ccccc2Cl)c(C)c1NC(=O)c1noc2c1CCCCC2 | 4.4% | -0.4% | 13.3%
-0.3 | COC(=O)c1ccc(OCCOCCOc2cccc3ccc(C)nc23)cc1 | -1.1% | -2.5% | 6.7%
7.1 | O=C(NC1CCCc2ccccc21)c1ccc(CNc2c(N3CCOCC3)c(=O)c2=O)cc1 (stereo not given) | -20.4% | -1.1% | -5.1%
10.6 | CC(=O)Nn1cc2c(=O)n(C)c(=O)n(C)c2c1 | 7.8% | -0.2% | -7.2%
· | O=C(Cc1cccs1)NCc1cc(Cl)cc(Cl)c1 | 5.5% | 6.5% | -61.4%
4.5 | N/C(=N\OC(=O)c1cccnc1)c1ccccc1Cl | 0.6% | -1.8% | -59.1%
· | O=C(/C=C/c1cccs1)N1CCC2(CC1)Oc1ccc(Cl)cc1C(=O)C21CC(c2ccc(Cl)cc2)=NO1 (stereo not given) | 0.2% | -3.2% | ·
-3.6 | O=C(C1CC(=O)N(c2ccccc2)C1)N1CCN(C2=NS(=O)(=O)c3ccccc32)CC1 (stereo not given) | -7.9% | 0.2% | -9.9%
-0.6 | O=C(Cc1ccccc1)NNC(=O)c1ccccc1C(=O)O | -0.6% | -2.5% | -15.7%
· | CCn1c2ccccc2c2cc(NC(=O)COC(=O)c3ccc(O)cc3)ccc21 | -12.4% | -2.8% | ·
0.7 | Cc1ccc(CN2CCN(/N=C/c3cc(Br)cc(Br)c3O)CC2)cc1 | -19.1% | -1.9% | 0.1%
-4.1 | c1ccc(-n2ncc3c(NCc4cccs4)ncnc32)cc1 | 7.6% | -0.1% | -45.5%
-5.0 | CCN(CC)c1ccc(C(=O)N/N=C/c2ccccc2OC(F)F)cc1 | -4.1% | -0.1% | 4.8%

# Record cards, from the list above.
# Profile of COC(=O)c1ccc(OCCOCCOc2cccc3ccc(C)nc23)cc1 = GLA inh pH 4.5 = -0.3; Rango dissoc inh = -1.1%; Rango complex inh = -2.5%; miR-21 reporter = 6.7%
# Profile of O=C(Cc1ccccc1)NNC(=O)c1ccccc1C(=O)O = GLA inh pH 4.5 = -0.6; Rango dissoc inh = -0.6%; Rango complex inh = -2.5%; miR-21 reporter = -15.7%
# Profile of O=C(/C=C/c1cccs1)N1CCC2(CC1)Oc1ccc(Cl)cc1C(=O)C21CC(c2ccc(Cl)cc2)=NO1 (stereo not given) = GLA inh pH 4.5 = ·; Rango dissoc inh = 0.2%; Rango complex inh = -3.2%; miR-21 reporter = ·

# (further entries)
GLA inh pH 4.5 | molecule | Rango dissoc inh | Rango complex inh | miR-21 reporter
· | Cc1ccc(S(=O)(=O)Nc2c(NC3CCCCC3)c3ccccc3oc2=O)cc1 | -0.8% | -0.4% | 4.9%
· | O=C(Nc1ccccc1Cl)Nn1cnnc1 | -14.9% | ? | -0.2%
· | Cc1ccc(NC(=O)CSCC(=O)N2CCN(c3cccc(C(F)(F)F)c3)CC2)cc1 | 14.6% | -1.1% | ·
8.3 | CCOc1cc(C2C(C(=O)OC)=C(C)N=C3SC(C)C(=O)N32)ccc1OC(C)=O (stereo not given) | -1.5% | -0.8% | -8.5%
-2.0 | COC(=O)c1sccc1NC(=S)Nc1ccccc1 | 1.6% | ? | -12.0%
1.3 | O=C(/C=C/c1cccc([N+](=O)[O-])c1)Nc1ccccn1 | -7.5% | -2.8% | -25.5%
0.1 | Cc1ccc(Sc2nc(-c3ccccc3)nnc2C(F)(F)F)cc1 | 30.8% | 0.8% | 0.0%
8.9 | O=C(c1cccc(N2C(=O)C3C4C=CC(C4)C3C2=O)c1)N1CCCc2ccccc21 (stereo not given) | 7.5% | -0.1% | -1.2%
0.8 | CSc1nc(-c2ccccc2)nc(N2CCCC2)c1C(C)=O | 3.9% | 0.7% | -1.3%
· | COc1ccc(Cc2nnc(NC(=O)c3ccc(OC)c(OC)c3)s2)cc1 | -10.5% | 3.9% | 2.0%
· | Cc1ccc(Cn2c(N)nc3ccccc32)cc1 | -1.1% | 3.9% | 17.5%
· | Cc1c(-n2c(CN3C(=O)c4ccccc4C3=O)nc3ccccc3c2=O)c(=O)n(-c2ccccc2)n1C | 1.5% | -2.5% | ·
· | N#Cc1ccc(Oc2c(Cl)cncc2Cl)cc1 | 0.0% | -0.7% | -0.4%
· | COc1ccc(/C=C2/NC(=O)CNC2=O)cc1 | -5.9% | 0.6% | -0.4%
0.4 | CCCC/C(C)=N/NC(=O)CN(c1ccc(Br)cc1)S(=O)(=O)c1ccccc1 | -7.5% | 1.8% | -8.1%
· | CC1(C)C[C@@H]2C[C@@](C)(CN2C(=O)c2cc(COc3cccc(C(F)(F)F)c3)on2)C1 | 6.9% | -1.1% | -14.9%
· | Cc1cc(-c2ccc(S(=O)(=O)N3CCc4ccccc4C3)s2)on1 | 1.4% | -0.7% | -2.7%
-13.3 | COc1ccc2[nH]c(C)c(C(=O)CN3CCc4cc(OC)c(OC)cc4C3)c2c1 | 18.7% | 0.8% | -2.0%
· | CN1CCN(C(=S)NC(=O)c2ccccc2Br)CC1 | 0.5% | 0.7% | -3.0%
2.2 | CCOC(=O)c1c(C)n(-c2ccc(OC)cc2)c2c(C/C(C)=N/O)c(Br)c(OC)c(O)c12 | 15.2% | 0.7% | 0.5%
-1.3 | O=C(N/N=C/c1ccccc1O)c1cc(=O)[nH]c2ccccc12 | · | · | 9.1%
· | Cc1cc(NC(=O)C(C)SCC(=O)OCC(=O)Nc2c(C)cccc2C(C)C)no1 (stereo not given) | 11.6% | -4.8% | ·
-6.7 | CCOC(=O)C1=C(O)C(=O)N(c2ccc(S(N)(=O)=O)cc2)C1c1ccc(Br)cc1 (stereo not given) | 11.3% | 3.8% | 0.9%
-3.7 | C=C(C(=O)c1ccccc1)C(C(=C)C(=O)c1ccccc1)c1ccc(OC)cc1 | -2.3% | 3.3% | -0.4%
· | CCN1C(=O)[C@H]2[C@@H](c3ccc(C)cc3)N3C(=O)N(c4ccc(OC)cc4)C(=O)[C@@]3(Cc3ccccc3)[C@H]2C1=O | 11.8% | 5.0% | ·
-16.1 | O=C(NCc1nc2ccccc2[nH]1)C1=C[C@H](C2CC2)C[C@H](OCc2ccc(CO)cc2)O1 | -25.7% | 0.1% | 21.4%
2.9 | Cc1cccc(C(=O)Oc2ccccc2/C=N/NC(=O)c2ccc(NC(=O)C(C)(C)C)cc2)c1 | -3.0% | -5.5% | -6.8%
· | CCOCCCN(C)C1CCN(C(=O)c2oc3ccccc3c2NC(=O)c2ccc(F)cc2)CC1 | 3.5% | -8.9% | -8.5%
-0.6 | Cc1nc2c(=O)n(-c3ccc(F)cc3F)nc(C)c2s1 | 0.4% | 0.5% | -1.1%
· | C=CCN(C(=O)CCC(=O)Nc1cc(C)on1)C(C(=O)NC(C)(C)CC)c1cccc(OC)c1OC (stereo not given) | 19.2% | 2.0% | 1.2%
8.9 | COC(=O)C1=C(C(=O)OC)[C@@H]2N(Cc3ccccc3)c3ccccc3[C@@]23C[C@@H](C(=O)OC)N(C(=O)c2cc(C)oc2C)C3=N1 | 0.5% | -1.4% | ·
4.7 | COc1ccc(C2(C(=O)Nc3ccc(OC)cc3OC)CCCC2)cc1 | 14.4% | ? | -3.2%
· | Cc1ccc(S(=O)(=O)N(C)CC(=O)Nc2cccnc2)cc1 | -9.5% | 3.9% | 2.3%
-0.3 | COc1cc(OC)c(S(=O)(=O)Nc2ccccc2N2CCCCC2)cc1NC(C)=O | 1.6% | -0.4% | 7.6%
· | Cc1cccn2c(=O)c3cc(C(=O)NC4CCCC4)c(=N)n(C4CCCCC4)c3nc12 | ? | ? | -2.0%
· | CCOC(=O)CCCCCNC(=O)c1ccc(F)cc1F | -8.1% | 2.6% | ·
-2.4 | N#Cc1ccc(CSc2nnc(-c3cnccn3)o2)cc1 | 10.3% | 0.1% | -5.9%
· | CCc1ccccc1NC(=O)c1ccc2c(O)c(S(=O)(=O)c3ccc(OC)cc3)c(=O)[nH]c2c1 | 7.4% | -2.7% | 1.5%
6.4 | CCCCNC(=O)CC1NCCNC1=O (stereo not given) | 0.8% | 2.3% | -1.5%
-4.9 | COC(=O)c1ccccc1NC(=O)CSc1nnnn1-c1ccc(C)cc1C | 0.4% | -0.8% | -3.5%
· | CNC[C@H](CC1CCCCC1)NC[C@H](NCCC1CCCC1)[C@H](C)O | -16.9% | -1.8% | 26.4%
· | CCN1C(=N)N(c2ccccc2)C(=O)C(CC)(CC)C1=O | -3.9% | 0.0% | ·
6.0 | CCOc1nc2ccccc2nc1NS(=O)(=O)c1ccccc1 | -13.8% | 0.0% | -2.4%
· | O=C(NCCCc1ccccc1)c1cc(COc2c(F)cccc2F)on1 | -6.3% | 0.0% | -30.9%
6.1 | CCN=C1NN=C(c2cc(C)n(Cc3ccco3)c2C)CS1 | -3.3% | -1.5% | -6.7%
4.9 | N#Cc1c(N)[nH]c(=S)c(C#N)c1-c1ccccc1 | -14.6% | ? | -37.1%
· | COc1cccc(OCc2cc(C(=O)N3CCCC3c3ccccn3)no2)c1 (stereo not given) | -6.2% | -0.6% | -43.5%
12.8 | COc1ccccc1-c1c(C)oc2cc(OC(=O)c3ccco3)ccc2c1=O | 0.2% | 4.7% | -9.0%
-13.2 | O=C1C2CC=CCC2C(=O)N1c1cccc(OS(=O)(=O)c2ccc3ccccc3c2)c1 (stereo not given) | 4.0% | 0.2% | 0.2%
-15.1 | CCOC(=O)CC(=O)NC1(Cc2ccc(O)cc2)CCCCC1 | 5.8% | 0.1% | -0.8%
· | OCCn1nc(-c2ccccc2)cc1-c1ccccc1 | -14.5% | 6.0% | -13.8%
-0.5 | COCCn1c(=S)[nH]c2cc(C(=O)N3CCc4ccccc43)ccc2c1=O | 6.2% | -1.2% | 9.9%
4.0 | COc1ccc(-c2[nH]ncc2-c2ccc(Cl)cc2)c(O)c1 | 8.1% | 7.9% | 0.1%

# A portion of the library; the hit share may differ from the screen's.
